CtBP-E1A inh: blocks the CtBP interaction with E1A. activity change, % (concentration not given with the values). AlphaScreen GST-E1A/His-CtBP binding, 1536-well; stronger effect = lower value; control for the full effect not named in the record. 340,000 compounds, 0.49% hits. AID 651724; in the data active means activity change below about -65%; inconclusive means about -30% to -65%; inactive means above about -30%; further: on the % scale 0 is the no-effect control and ±100 the full control effect
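GST-E1A and His-tagged CtBP (125 nM each as 5X stock) were preincubated with pin-transferred compound for 2 h at 37 °C in the dark, then glutathione donor and nickel acceptor beads were added for 1 h before AlphaScreen reading.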
D2 ag: activates the human D2 dopamine receptor. AID 624465. activation, % (test concentration not listed). DiscoveRx PathHunter D2 beta-arrestin, luminescence, 90 min; 100% = 57 uM dopamine signal. 360,000 compounds, 0.084% hits; in the data active = activation above about 40%; inconclusive = about 15% to 40%; inactive = below about 15%; further: compound concentration not given in the record; the text of the record calls up to 30% inactive
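DiscoveRx PathHunter D2 beta-arrestin cells (2,100/well) attached overnight, then compound-stimulated 90 min at 37 C in HBSS/10 mM HEPES/0.1% Tween-20 buffer; beta-galactosidase complementation read by luminescence after 1 h at ambient temperature. Dopamine 57 uM final (EC100) as control.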
gsp antagonist: antagonizes gsp, the McCune-Albright syndrome mutation | gsp-mutant cells, cAMP HTRF, 30 min; control for the full effect not named in the record | Potency, µM (series often up to 76.9 µM), without a hit: top-dose activity change, negative = inhibition, usual class: inhibitors | 340,000 compounds, 0.4% hits; active = falling curve of any shape with a large fitted effect; inconclusive = falling curve, mostly with a smaller effect; inactive = flat or rising curve; cell line not stated here;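 further: intracellular cAMP measured with PDE inhibitor Ro 20-1724 present during compound exposure; potency means the concentration at half of the fitted maximal effect; on the % scale 0 is the no-effect control and ±100 the full control effect; nearly all actives have a fitted effect of over 65% in size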
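G418-selected cells were plated in DMEM/10% FBS for 16-24 h at 37C, then treated with compounds plus the PDE inhibitor […] (300 uM solution added) for 30 min at 37C. Intracellular cAMP was measured by HTRF after 30 min lysis at room temperature.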
Six1-Eya2 inh: blocks human Six1 binding to Eya2; 360,000 compounds, 0.56% hits; activity change, % (test concentration not listed); AlphaScreen GST-Six1/His-Eya2 binding, biochemical; stronger effect = lower value; control for the full effect not named in the record; AID 651725; in the data active = activity change below about -65%; inconclusive = about -30% to -65%; inactive = above about -30%; further: on the % scale 0 is the no-effect control and ±100 the full control effect
Target sequence (O00167 whole entry, looked up): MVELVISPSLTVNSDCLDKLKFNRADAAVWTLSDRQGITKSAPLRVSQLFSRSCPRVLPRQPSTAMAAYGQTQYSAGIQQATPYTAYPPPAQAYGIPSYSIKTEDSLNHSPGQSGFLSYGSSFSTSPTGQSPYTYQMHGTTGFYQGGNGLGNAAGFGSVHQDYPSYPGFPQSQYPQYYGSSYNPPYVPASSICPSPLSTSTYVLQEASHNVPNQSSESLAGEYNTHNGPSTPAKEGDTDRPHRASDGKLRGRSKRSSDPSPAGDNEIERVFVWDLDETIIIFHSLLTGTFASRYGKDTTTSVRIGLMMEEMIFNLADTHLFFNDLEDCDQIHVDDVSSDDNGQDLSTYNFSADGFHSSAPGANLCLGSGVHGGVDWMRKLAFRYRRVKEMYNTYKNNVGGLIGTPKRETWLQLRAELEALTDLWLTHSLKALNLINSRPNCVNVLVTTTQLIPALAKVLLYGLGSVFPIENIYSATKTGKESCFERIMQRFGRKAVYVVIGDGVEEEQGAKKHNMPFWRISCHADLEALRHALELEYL
Target sequence (Q15475 whole entry, looked up): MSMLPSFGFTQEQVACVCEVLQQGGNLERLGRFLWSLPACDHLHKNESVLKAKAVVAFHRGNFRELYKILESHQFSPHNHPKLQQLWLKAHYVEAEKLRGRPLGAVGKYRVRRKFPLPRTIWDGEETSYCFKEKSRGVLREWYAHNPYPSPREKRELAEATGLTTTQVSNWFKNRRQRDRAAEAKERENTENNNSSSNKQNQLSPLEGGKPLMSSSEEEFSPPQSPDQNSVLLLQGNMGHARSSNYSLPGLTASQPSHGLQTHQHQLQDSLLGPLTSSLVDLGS
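Six1/Eya2 binding was read as AlphaScreen signal after compounds were pinned into GST-Six1 plus His-tagged Eya2 (5X stock 250/500 nM) in pH 8.0 Tris/NaCl/TCEP buffer, beads added, then incubated 1 h, 37 C, dark.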
D2 potentiator: positive allosteric modulators of human D2 dopamine receptor; P14416; DiscoveRx D2 beta-arrestin cells, luminescence, 90 min; 100% = 57 uM dopamine signal; potentiation, % (no concentration beside the values); 360,000 compounds, 0.23% hits; active = potentiation of 50% or more; inconclusive = 30% to 50%; inactive = 30% or less;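 further: compound concentration not given in the record; tested on top of an EC20 dose of dopamine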
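D2 cells co-treated with compound plus 50 nM dopamine (EC20) for 90 min at 37 deg C to detect potentiation. Beta-arrestin recruitment was read as enzyme-fragment luminescence after 1 h at ambient temperature. Full response was set by 57 uM dopamine.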
gsp agonist: activates gsp, the McCune-Albright syndrome mutation; gsp mutant cells, cAMP HTRF, 30 min; control for the full effect not named in the record; Potency, µM (series often up to 76.9 µM), without a hit: at the top dose activation (cAMP increase), most hits filed as activators; 340,000 compounds, 0.13% hits; AID 624287; active = well fitted activation curve with a large enough effect; inconclusive = small, poorly fitted or top-dose-only effect, or another doubt; inactive = no such curve, though single readings can be large or run the other way; cell line not stated here;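 further: phosphodiesterase inhibitor Ro 20-1724 added with compounds to block cAMP breakdown; potency means the concentration at half of the fitted maximal effect; nearly all actives have a fitted effect of over 60% in size; about a fifth of the inactives were tested at one dose only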
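Cells in DMEM/10% FBS with G418 were pretreated with compounds in DMSO plus […] (300 uM stock) for 30 min at 37C. cAMP was measured by HTRF (cAMP-d2 plus anti-cAMP antibody-K) after 30 min at room temperature.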
An asterisk follows results filed as active; ? = inconclusive; · = no result given; & = joins results of further samples; [ ] = dose if it differs, or a comment.

item	CtBP-E1A inh	D2 ag	gsp antagonist	Six1-Eya2 inh	D2 potentiator	gsp agonist	smiles
1	8	-3.1	3%	3	-1	-24%	COCCSc1ccccc1C(=O)Nc1ccc(S(=O)(=O)N2CCOCC2)cc1
2	0	-1.6	-10%	-1	-2	3%	COc1ccc(Cl)cc1NC(=O)CCN1CCN(Cc2ccccc2)CC1
3	0	-2.7	·	2	-1	·	CCCCN(C)C(=O)c1sc(=O)n(Cc2c(C)noc2C)c1C
4	5	-7.0	5%	0	-14	11%	O=C(COc1ccc([N+](=O)[O-])cc1)NNC(=O)Nc1cccc(F)c1
5	5	3.3	2%	6	-1	?	CC(NC(=O)c1ccccc1)c1nnc(SCc2nc3ccccc3c(=O)[nH]2)n1C (stereo not drawn)
6	7	2.6	5%	-5	-21	19%	Cc1ccc(C(=O)NCCc2ccc(S(=O)(=O)N3CCCC3)cc2)cc1
7	6	3.7	?	5	0	-21%	CC(C)(CC(=O)O)CC(=O)N1CCN(c2nc3ccc(Cl)cc3s2)CC1
8	3	1.8	-15%	-2	-19	·	CS(=O)(=O)N(Cc1nc(-c2ccc(F)cc2)no1)c1ccccc1Cl
9	-11	-4.8	6%	6	-1	-10%[15.4 µM]	Cc1ccc(NC(=O)COC(=O)C2CC2(Cl)Cl)cc1C (stereo not drawn)
10	-6	3.6	-14%	-3	2	1%	CCCCOc1ccc(Nc2cc(Cl)ccc2C(=O)O)cn1
11	-1	-2.6	4%	-2	-6	-11%	O=C(/C=C/c1ccc2c(c1)OCCO2)N1CCN(c2ccc(F)cc2)CC1
12	-11	6.5	-22%	-5	10	0%	CCOc1ccc(S(=O)(=O)N2CCN(c3ccccc3F)CC2)c2cccnc12
13	7	-2.6	10%	5	-7	·	CC(C)(C)OC(=O)C[C@H]1C/C=C\C[C@H](CC(=O)NCCO)C(=O)NC[C@H](c2ccccc2)OC1=O
14	3	-0.2	-1%	2	-6	-10%	CN1C(=O)CSC1=NCC12CC3CC(CC(C3)C1)C2
15	-3	4.4	-3%	-22	-4	6%	O=C(c1cccc(S(=O)(=O)N2CCN(c3ccc(F)cc3)CC2)c1)N1CCCC1

Continuation.
item	CtBP-E1A inh	D2 ag	gsp antagonist	Six1-Eya2 inh	D2 potentiator	gsp agonist	smiles
16	8	-1.1	10%	2	-15	18%	O/N=C/c1ccc(-c2cc(Cl)ccc2Cl)o1
17	-10	-1.0	-18%	59	-4	-4%	c1csc(-c2cn3ccc4ccccc4c3n2)c1
18	2	8.4	·	-7	14	·	O=C(Nc1ccccc1Cl)c1cc(C2CCCN(C(=O)c3cccc(O)c3)C2)on1 (stereo not drawn)
19	2	1.6	·	-16	-4	20%[15.4 µM]	Cc1oc(-c2ccc(F)cc2)nc1CN(Cc1ccccn1)CC1CCCO1 (stereo not drawn)
20	6	2.2	9%	1	-9	2%[15.4 µM]	O=C(COC(=O)C1=COCCO1)Nc1ccc(F)c(F)c1
21	-7	-0.4	5%	10	-15	-6%	S=C(Cc1cccnc1)N1CCOCC1
22	2	-1.1	1%	0	3	5%	COc1cccc(NC(=O)N2CCC(C(=O)Nc3ccc(C)cc3C)CC2)c1
23	-12	4.7	-5%	3	-9	18%	Cc1ccc(C(=O)NC(=S)Nc2ccccc2C)cc1
24	-1	-1.3	-10%	-8	-7	10%	CCOc1ccc(NS(=O)(=O)c2ccc3[nH]cc(C(=O)N(CC)CC)c(=O)c3c2)cc1
25	·	-3.8	-3%	2	0	-12%	CCCN(Cc1nnc(-c2cccs2)o1)C(=O)CN1C(=O)NC2(CCC(C)CC2)C1=O (stereo not drawn)
26	7	-1.0	5%	-1	-3	13%[15.4 µM]	Cc1ccc(OCC(=O)N2CCC3(CC2)CC(=O)c2ccccc2O3)cc1
27	-2	-0.8	-22%	0	1	-26%	Cc1ccc(C(=O)OCC(=O)Nc2ccccc2)cc1S(=O)(=O)N1CCCCC1
28	5	0.2	-19%	5	-1	-30%	S=c1[nH]c2cc(Cl)ccc2s1
29	0&7	-2.4&-6.1	39%&37%[activator]	-4&9	-9&12	·	CCCC(=O)Nc1ncnc2c1ncn2[C@@H]1O[C@@H]2COP(=O)(O)O[C@H]2[C@H]1OC(=O)CCC
30	-3	1.1	3%	6	5	-1%	COc1cccc(NC(=O)C23CCC(C)(C(=O)O2)C3(C)C)c1 (stereo not drawn)

Part of the list above in order of molecular weight, low to high:
item	CtBP-E1A inh	D2 ag	gsp antagonist	Six1-Eya2 inh	D2 potentiator	gsp agonist	smiles
21	-7	-0.4	5%	10	-15	-6%	S=C(Cc1cccnc1)N1CCOCC1
16	8	-1.1	10%	2	-15	18%	O/N=C/c1ccc(-c2cc(Cl)ccc2Cl)o1
23	-12	4.7	-5%	3	-9	18%	Cc1ccc(C(=O)NC(=S)Nc2ccccc2C)cc1
20	6	2.2	9%	1	-9	2%[15.4 µM]	O=C(COC(=O)C1=COCCO1)Nc1ccc(F)c(F)c1
26	7	-1.0	5%	-1	-3	13%[15.4 µM]	Cc1ccc(OCC(=O)N2CCC3(CC2)CC(=O)c2ccccc2O3)cc1
22	2	-1.1	1%	0	3	5%	COc1cccc(NC(=O)N2CCC(C(=O)Nc3ccc(C)cc3C)CC2)c1
27	-2	-0.8	-22%	0	1	-26%	Cc1ccc(C(=O)OCC(=O)Nc2ccccc2)cc1S(=O)(=O)N1CCCCC1
24	-1	-1.3	-10%	-8	-7	10%	CCOc1ccc(NS(=O)(=O)c2ccc3[nH]cc(C(=O)N(CC)CC)c(=O)c3c2)cc1
29	0&7	-2.4&-6.1	39%&37%[activator]	-4&9	-9&12	·	CCCC(=O)Nc1ncnc2c1ncn2[C@@H]1O[C@@H]2COP(=O)(O)O[C@H]2[C@H]1OC(=O)CCC

New compounds follow
item	CtBP-E1A inh	D2 ag	gsp antagonist	Six1-Eya2 inh	D2 potentiator	gsp agonist	smiles
31	-7	-0.2	15%	6	-8	24%	CCOc1cc2c(C#N)c(N(CC)CC)nc(N)c2c(N)n1
32	5	4.1	-6%	1	5	0%[15.4 µM]	COC(=O)C1=C(C)Nc2nc3ccccc3n2C1c1cc(OC)c(OC)c(OC)c1 (stereo not drawn)
33	·	1.5	-1%	-1	-17	-13%	O/N=C/c1cc2ccccc2n1Cc1ccccc1F
34	6	-3.3	13%	1	10	-1%	O=C(COc1ccc(Cl)cc1)NCc1nnc(SCC(=O)N2CCCCC2)o1
35	1	1.3	6%	0	-3	20%	Cc1onc(-c2c(Cl)cccc2Cl)c1C(=O)N1CCN(c2ncccn2)CC1
36	-5	2.6	-7%	-3	-5	1%	COc1cccc(S(=O)(=O)NCc2ccc(C(=O)NCc3ccco3)cc2)c1
37	3	-0.1	8%	-3	-2	-45%[inhibitor]	CN(C(=O)COc1ccccc1)c1nnc(-c2cccnc2)s1
38	6	2.0	3%	0	2	-40%[inhibitor]	S=C(NCc1cccs1)Nc1ccc(Br)cc1Cl
39	-4	2.5	-27%	0	8	-7%	Cc1ccc(-c2nc3cccnc3o2)cc1NC(=O)COc1ccc(C(C)(C)C)cc1
40	9	3.3	-38%	1	-20	12%[15.4 µM]	COc1cc2c(c(OC)c1OC)C(=O)C(=Cc1ccccc1)O2
41	-3	-0.5	-4%	18	26	-13%[15.4 µM]	O=C(NC(Cc1ccccc1)C(=O)O)/C(=C\c1ccc([N+](=O)[O-])cc1)NC(=O)c1ccco1 (stereo not drawn)
42	-7	-1.8	-12%	0	-2	-3%	Cc1ccc(-n2c(SCC(=O)N3CCOCC3)nc(O)c(Cc3ccccc3)c2=O)cc1
43	0	-5.1	8%	0	-2	12%[15.4 µM]	O=C(NCc1ccc2c(c1)CCO2)Nc1ccccc1
44	-11	-2.1	3%	-8	-28	0%	Cc1cccc(N2CCN(C(=O)c3ccc(Cl)c(S(=O)(=O)N4CCc5ccccc5C4)c3)CC2)c1C
45	0	-1.2	13%	0	-3	23%	CN1CCN(S(=O)(=O)c2cccc(C(=O)NCc3ccc(Cl)cc3)c2)CC1

(next part)
item	CtBP-E1A inh	D2 ag	gsp antagonist	Six1-Eya2 inh	D2 potentiator	gsp agonist	smiles
46	-2	2.2	-1%	-1	0	-17%	Nc1cccc(S(=O)(=O)Nc2ccc(Br)cc2)c1
47	1	2.8	-15%	0	-1	24%	COc1ccc2cc(C(=O)C3CCCN(C(=O)c4cccnc4)C3)ccc2c1 (stereo not drawn)
48	24	0.0	-2%	3	-6	0%	Fc1ccc2nncc(SCc3ccccc3Cl)c2c1
49	6	-1.4	4%	6	-8	3%	COC(=O)C1=C(C)NC(=O)CC1c1ccccc1F (stereo not drawn)
50	·	2.5	0%	14	-3	-3%[15.4 µM]	CN(C)/C=C1\Oc2ccc3ccccc3c2C1=O
51	2	-2.8	-5%	14	-7	-10%[15.4 µM]	O=C(c1ccc(Cl)nc1)N1CCN(S(=O)(=O)c2ccc(Cl)cc2)CC1
52	-12	4.1	-3%	-5	-11	7%[15.4 µM]	Cc1ccc(C(=O)NC(=S)NNC(=O)CC#N)cc1
53	4	-1.0	15%	2	-9	-1%	COc1ccccc1-c1cc(C(=O)Nc2cc(C)n(Cc3ccc(Cl)cc3)n2)no1
54	-8	-6.7	4%	6	-13	-53%[inhibitor]	O=C(O/N=C1/CCCc2occc21)c1ccccc1
55	0	-3.2	2%	-2	-6	?	O=C1c2cccc3cccc(c23)C(=O)N1c1nncs1
56	2	6.6	-5%	2	-16	8%[15.4 µM]	Cc1ccc(NC(=S)NC2CC3CCCC(C2)N3Cc2ccco2)cc1 (stereo not drawn)
57	4	-3.2	7%	3	-6	-42%[inhibitor]	COC(C(=O)NNC(=O)CCc1ccccc1)c1ccccc1 (stereo not drawn)
58	10	2.0	-8%	23	-6	-1%	CN(C)c1ccc(/C=C/C(=O)c2cccc(Br)c2)cc1
59	8	-6.8	2%	8	-4	0%	NC(=O)NCc1ccc(C(=O)OCc2ccncc2)cc1
60	0	0.3	-1%	17	-2	-14%[15.4 µM]	Cc1ccc(NC(=O)COC(=O)C2C3CC4OC(=O)C2C4C3)cc1Cl (stereo not drawn)
61	-23	-2.5	-6%	-14	-13	·	CC(C)(C)[C@@H]1C=C(C(=O)N2CCN(Cc3ccc4c(c3)OCO4)CC2)O[C@H](OCc2ccc(CO)cc2)C1
